Calb FLC – C. albicans growth modulation with fluconazole; AID 1979; C. albicans CaCi-2 (fluconazole-resistant clinical isolate) + fluconazole, Alamar Blue growth, 48 h; growth inhibition, % (no concentration beside the values); 0.57% of 300,000 active;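 active means most replicates above 75%; inconclusive means exactly half above 75%; inactive means most below 75%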;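 further: all wells also contain fluconazole at 8 µg/ml as a sub-toxic cotreatment; 0% = median of DMSO wells and 100% = median of geldanamycin control wells; wells of about 8 µL received 7.5 nL stock; the first replicate is given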
Beta apoptosis – beta cell apoptosis inhibition | protection from apoptosis, % (concentration not given with the values) | INS-1E cytokine-induced death, ATP luminescence, 48 h; percent of positive-control rescue, neutral wells zero | 0.8% of 300,000 active;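 active means all replicates at 75% or more, or half of them and the mean; inconclusive means half reach 75% but not the mean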;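 further: 0% = cytokine-treated negative control wells and 100% = positive control rescue; higher means more ATP so stronger rescue from cytokine killing; wells of about 40 µL received 100 nL stock; the first replicate is given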
rRNA inh HTS – inhibitors of bacterial rRNA selective over humanized ribosomes; E. coli WT GFP vs humanized-ribosome RFP mutants, fluorescence, 24 h; hits give low values; DMSO median 0, no signal -100; GFP signal change (wild-type ribosome), % (test concentration not listed); 1.6% of 350,000 active; AID 720706;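 active means significant combined selectivity score with lowered wild-type GFP, culture density cut under 30%, mutant RFP and density less affected; inactive means any of these conditions unmet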; further: one replicate is shown; some compounds called inactive have numbers as strong as hits
A1 inh – inhibitors of the anti-apoptotic protein A1, read as caspase activation; caspase activation, % (no concentration beside the values); MEF A1-2A-BIM cells, Caspase-Glo 3/7 luminescence, 3 h; percent of clofoctol response, vehicle zero; AID 2462; 0.066% of 330,000 active;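 active means over half of replicate activation scores above 10%, or exactly half above 10 with the replicate mean above 10; inconclusive means replicate mean below 10 yet half the replicates above 10; inactive means over half of replicates below 10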;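 further: wells of about 30 µL received 50 nL stock; many hits fall short of the cut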
B2AR ag – agonists of human beta-2 adrenergic receptor inducing internalization. Am2.2-beta2AR cells, FAP receptor internalization, flow cytometry; reference of the scale not given here. P07550. response, % (concentration not given with the values). 0.43% of 340,000 active;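 active means response above a set limit, near 3 SD of response in nonfluorescent compounds, cut at about 42% in these data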;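 further: stock transfer was 100 nL into about 11 µL; a reference agonist was the positive control; negative values mostly stem from fluorescent compounds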
ALR H2O2 inh – human ALR oxidase inhibition via reduced H2O2. purified ALR, DTT oxidation, H2O2 HRP-luminol luminescence. AID 485317. 3.8% of 290,000 active. inhibition, % (test concentration not listed). P55789;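 active means mean and each replicate at 75% or more; inconclusive means only one of the two met; inactive means neither met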;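 further: stock transfer was 7.5 nL into about 7.5 µL; 0% = neutral wells and 100% = wells with inactivated enzyme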
T cruzi inh – T. cruzi replication inhibition. T. cruzi beta-gal in NIH3T3, luminescence, 90 h. inhibition, % (test concentration not listed). 1.4% of 300,000 active. AID 1885;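 active means mean inhibition across valid replicates above about 55%, limit read from the data; inconclusive means mean below that limit but half or more replicates reach it; inactive means mean below it, under half of replicates reach it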;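 further: signal also drops with host cell toxicity which is not excluded here; 0% = plate median of DMSO wells and 100% = zero luminescence signal; higher percent means less beta-gal luminescence so fewer parasites; stock transfer was 50 nL into about 50 µL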
LANA-H2B inh – blocks KSHV LANA binding to histone H2A/H2B. Q9QR71. cell-free LANA-H2A/H2B peptide, fluorescence polarization. inhibition, % (test concentration not listed). 0.6% of 320,000 active. AID 2629; in the data active means inhibition mostly above about 10%, no sharp cut-off; inactive means mostly below about 6.7%;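 further: stock transfer was 7.5 nL into about 10 µL; 0% = median of vehicle wells and 100% = median of positive control wells; one replicate is shown; the record names a cut of 25% in any replicate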
Target sequence (Q9QR71 whole entry, looked up): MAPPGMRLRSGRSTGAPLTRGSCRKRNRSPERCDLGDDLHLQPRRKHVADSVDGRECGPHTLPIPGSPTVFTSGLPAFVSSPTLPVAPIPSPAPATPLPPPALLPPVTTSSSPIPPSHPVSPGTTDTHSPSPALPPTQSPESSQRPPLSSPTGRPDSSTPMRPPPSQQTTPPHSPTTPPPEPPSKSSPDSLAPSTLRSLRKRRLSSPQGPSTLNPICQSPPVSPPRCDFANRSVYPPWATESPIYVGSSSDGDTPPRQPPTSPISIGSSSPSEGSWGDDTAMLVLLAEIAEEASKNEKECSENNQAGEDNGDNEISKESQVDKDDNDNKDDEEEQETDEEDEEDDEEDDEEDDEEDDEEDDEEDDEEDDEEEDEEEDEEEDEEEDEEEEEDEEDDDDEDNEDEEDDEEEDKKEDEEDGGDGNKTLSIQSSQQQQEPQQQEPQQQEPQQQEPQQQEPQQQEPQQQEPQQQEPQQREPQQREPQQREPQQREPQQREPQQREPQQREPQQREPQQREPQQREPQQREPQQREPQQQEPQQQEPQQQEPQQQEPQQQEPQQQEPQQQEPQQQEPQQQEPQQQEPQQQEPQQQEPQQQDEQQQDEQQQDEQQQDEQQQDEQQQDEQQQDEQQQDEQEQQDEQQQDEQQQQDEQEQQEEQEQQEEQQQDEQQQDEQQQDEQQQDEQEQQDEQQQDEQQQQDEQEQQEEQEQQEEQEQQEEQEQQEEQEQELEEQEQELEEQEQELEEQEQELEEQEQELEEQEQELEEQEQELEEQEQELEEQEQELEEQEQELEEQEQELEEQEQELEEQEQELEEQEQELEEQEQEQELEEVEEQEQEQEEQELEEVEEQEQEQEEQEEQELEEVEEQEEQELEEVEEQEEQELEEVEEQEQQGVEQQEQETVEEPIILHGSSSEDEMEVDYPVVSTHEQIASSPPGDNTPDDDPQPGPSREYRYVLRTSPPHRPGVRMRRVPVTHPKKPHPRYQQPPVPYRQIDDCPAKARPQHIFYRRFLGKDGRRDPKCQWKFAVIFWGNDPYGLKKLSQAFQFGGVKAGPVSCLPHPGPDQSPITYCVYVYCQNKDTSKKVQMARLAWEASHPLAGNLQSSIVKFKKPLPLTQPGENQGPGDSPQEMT
rRNA inh HTS OD600 – further read-out of rRNA inh HTS, marked with its call; OD600 change, %; measured here: OD600 growth;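 optical density of the mix in the first replicate; 0 = DMSO median and -100 = no signal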
rRNA inh HTS RFP – second read-out of rRNA inh HTS, no call of its own (marks repeat the call); RFP signal change, %; measured here: RFP humanized mutant strains;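 first replicate; 0 = DMSO median and -100 = no signal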
An asterisk follows results filed as active; i = inactive; ? = inconclusive; · = no result given. The list is partial (hit frequency here may not be typical).

mol	LANA-H2B inh	rRNA inh HTS RFP	B2AR ag	rRNA inh HTS OD600	T cruzi inh	Beta apoptosis	Calb FLC	rRNA inh HTS	A1 inh	ALR H2O2 inh
CSc1ccc(CN2CCC(CO)(CCOc3ccccc3)CC2)cc1	-3.3	1.7	22	-16	-4	·	-6	-8	0.2	-4
Cc1ccccc1NC(=O)c1onc2c1CCCC2	-4.4	·	-2	·	-8	6	-8	·	-6.5	-34
COc1ccccc1-c1noc(-c2ccccc2C(=O)Nc2cccnc2)n1	0.5	·	2	·	-6	5	-30	·	-0.1	-8
CCN(Cc1ccccc1)C(=O)c1ccc2c(=O)n3c(nc2c1)CCC3	·	-2.8	-4	9	-1	-9	-5	2	0.4	·
COc1cccc(/C=C/C(=O)OCC(=O)Nc2ccccc2Sc2ccccc2)c1	-4.4	-1.8	7	-11	-3	-7	-22	-16	-0.9	·
O=C(O)c1ccc(OCC(O)Cn2cnc3ccccc32)cc1 (configuration not stated)	3.0	·	15	·	5	-6	-5	·	1.2	-4
CCOc1cc(/C=N/NC(=O)c2ccc3c(c2)OCCO3)cc(Br)c1O	1.7	-0.2	0	2	6	1	-8	0	0.8	·
CC(=O)Nc1c(-c2ccc(F)cc2)nc2ccccn12	1.9	0.3	7	15	-3	-6	3	11	0.4	-8
COc1ccc(Cc2nc3ccc(C(=O)N4CCCCC4CCO)cc3o2)cc1 (configuration not stated)	-3.2	0.0	2	-4	-13	-7	0	0	-0.5	0
COc1ccc(C(=O)Nc2ccncc2)c(OC)c1	-11	-3.3	-6	4	4	-4	31	-6	-0.6	-3
COc1cc(/C=C2\SC(=S)N(NC(=O)c3ccc(O)c(OC)c3)C2=O)ccc1O	-7.7	4.6	-44	-5	-5	·	-2	-15	0.1	·
Nc1ccc(C23CC4CC(CC(O)(C4)C2)C3)cc1	0.3	·	-10	·	1	-6	33	·	-0.7	·
CC(C)CN(C(=O)COC(=O)c1nc(Cl)ccc1Cl)C1CCS(=O)(=O)C1 (configuration not stated)	0.7	-2.3	-11	1	-8	-5	-4	7	0.3	-5
Cc1cc(N(C)C)c(C#N)c(N2CCCCC2)n1	-18	·	1	·	-9	·	-2	·	0.4	-11
Cc1cccc(C(=O)OCC(=O)N2CCCCCC2)c1O	0.5	0.7	8	-1	·	-4	·	-3	-2.0	4
CC(=O)Nc1ccc(Nc2cc(N3CCOCC3)c3nonc3c2[N+](=O)[O-])cc1	1.4	-1.0	-1	21	-8	1	?	14	0.9	·
CSc1nnc2c(n1)OC(c1ccsc1)N(C(C)=O)c1ccccc1-2 (configuration not stated)	0.3	·	-4	·	-9	-1	0	·	-0.3	4
CC(C)OCCCNC(=O)C1CCN(S(=O)(=O)N2CCCC2)CC1	6.2	-1.1	-3	3	-4	-6	-16	12	1.1	·
COc1ccc(CCC(=O)Nc2nc(-c3ccncc3)cs2)cc1	0.3	·	·	·	36	-4	-1	·	-0.5	-6
CC(C)C(O)C1CCN(Cc2nc(-c3cccs3)no2)CC1 (configuration not stated)	2.1	3.2	-2	-3	-12	-3	3	29	1.1	-5
CCNc1cc(O)ccc1C	i	·	9	·	·	-6	·	·	1.5	18
O=C(CCn1nc(-c2ccccc2)ccc1=O)N1CCOCC1	-0.9	-5.6	-4	6	-19	-7	-8	5	0.6	-14
CC1CCN(C(=O)c2cc(F)c(F)cc2Cl)CC1	3.8	·	1	·	-11	-5	7	·	0.2	1
CCCc1nc2oc3c(Cl)ncnc3c2c2c1CCCC2	4.5	0.3	44*	6	3	-8	3	2	0.6	-2
COc1ccc(CNC(=O)C2CC(C)=C(C)CC2C(=O)O)cc1 (configuration not stated)	3.8	·	0	·	-8	5	-2	·	0.3	-11
COc1ccc2nc3n(c(=O)c2c1)-c1cc(C)ccc1C(=O)NC3Cc1ccc(O)cc1 (configuration not stated)	-0.8	·	·	·	·	10	·	·	1.7	-2
COc1ccc(NC(=O)Cc2coc3ccc4ccccc4c23)cc1S(=O)(=O)N1CCOCC1	-1.4	·	1	·	1	-7	14	·	0.1	-7
O=C(c1ccc(Cl)cc1Cl)N1CCC(c2nc3c(nnn3Cc3ccco3)c(=O)[nH]2)CC1	-0.2	·	-9	·	·	1	9	·	0.5	-2
C=C(C)[C@@H](O)COc1c2ccoc2cc2oc(=O)ccc12	-0.4	-1.5	8	8	·	5	·	9	-0.6	-6
O=C(c1n[nH]c2ccccc12)N1CCOCC1	0.4	3.3	-1	10	-12	-3	-5	7	-0.1	·

Some values from the entries so far:
COc1ccc(NC(=O)Cc2coc3ccc4ccccc4c23)cc1S(=O)(=O)N1CCOCC1 – ALR H2O2 inh: -7
CC1CCN(C(=O)c2cc(F)c(F)cc2Cl)CC1 – LANA-H2B inh: 3.8

The listing picks up with the 4 entries that preceded the break.
mol	LANA-H2B inh	rRNA inh HTS RFP	B2AR ag	rRNA inh HTS OD600	T cruzi inh	Beta apoptosis	Calb FLC	rRNA inh HTS	A1 inh	ALR H2O2 inh
COc1ccc(NC(=O)Cc2coc3ccc4ccccc4c23)cc1S(=O)(=O)N1CCOCC1	-1.4	·	1	·	1	-7	14	·	0.1	-7
O=C(c1ccc(Cl)cc1Cl)N1CCC(c2nc3c(nnn3Cc3ccco3)c(=O)[nH]2)CC1	-0.2	·	-9	·	·	1	9	·	0.5	-2
C=C(C)[C@@H](O)COc1c2ccoc2cc2oc(=O)ccc12	-0.4	-1.5	8	8	·	5	·	9	-0.6	-6
O=C(c1n[nH]c2ccccc12)N1CCOCC1	0.4	3.3	-1	10	-12	-3	-5	7	-0.1	·
CCN(C(=S)NCc1ccccc1)c1cccc2ccccc12	0.0	-7.9	0	-29	13	16	-2	-31	0.3	-10
COc1cccc(CC(=O)OCC(=O)NC2(C#N)CCCCC2)c1	-2.4	1.8	-4	9	-7	0	-12	10	-0.2	·
CCOC(=O)c1c(C)[nH]c(C(=O)COC(=O)c2ccc([N+](=O)[O-])o2)c1C	-1.9	5.3	2	25	·	0	·	28	1.6	·
CCn1c(CC(=O)Nc2ccccc2)nnc1SCC(=O)Nc1ccccc1C(=O)OC	0.1	·	-1	·	-2	-11	33	·	0.1	11
Cc1cc(N2CCCCCC2)nc(-c2ccccc2O)n1	1.4	·	1	·	30	-3	14	·	1.1	-1
OC(COC1CCCCC1)CN1CCCCC1 (configuration not stated)	3.2	1.7	0	18	7	·	0	24	-0.6	-6
COc1cccc(SCc2noc(C(=O)NC(C)C)c2C(=O)O)c1	-6.8	-6.8	-7	-12	-16	-3	-9	-5	-0.4	2
Cc1ccc(NC(=S)NCCN2CCOCC2)cc1F	0.8	-6.2	-6	0	-13	-3	1	15	0.4	6
O=C(Nc1ccccc1)c1ccc(N2CCN(c3ccccc3)CC2)c(S(=O)(=O)N2CCOCC2)c1	9.4	·	3	·	56*	14	-8	·	0.6	12
CC1CN(C(=O)CCC(=O)NCc2ccccc2)c2ccccc2O1 (configuration not stated)	-3.7	0.1	-2	15	0	2	30	16	-0.3	4
Cc1ccc(SCCNCc2ccco2)cc1	3.8	-0.8	7	1	7	-2	-13	6	-0.9	0
Cc1cc2cc(CN(Cc3ccco3)C(=S)NCC3CCCO3)c(=O)[nH]c2cc1C (configuration not stated)	-3.5	·	1	·	-22	-1	-2	·	0.0	7
CCOC(=O)C1(CCOC)CCN(Cc2ccc(COC)o2)CC1	-5.1	2.8	-1	20	-3	1	18	15	1.7	2
CCOC(=O)N1CCN(C(=O)CCCn2c(=O)[nH]c3ccccc3c2=O)CC1	-0.4	·	-2	·	-3	-1	4	·	0.1	-1
CC(C(=O)Nc1ccc(N(C)C)cc1)N1C(=O)c2ccccc2S1(=O)=O (configuration not stated)	-0.2	1.9	1	16	-1	3	-10	8	1.8	99*
C[C@@H](NC(=O)c1nc[nH]c1C(=O)N1CCc2ccccc2C1)c1ccccc1	1.3	-11	-6	-14	·	-7	·	-14	0.5	9
O=C(N[C@H]1CCCCNC1=O)c1cc(COc2ccc(F)cc2F)on1	-3.2	-0.3	-9	3	-5	2	6	1	-0.8	-6
Cc1cccc(N2C(=O)C3CCCN3C2=S)c1C (configuration not stated)	1.0	0.0	16	4	·	-7	·	-7	-1.4	1
O=C(c1ccc(-n2cccc2)cc1)N1CCOCC1	1.8	·	-4	·	-19	-2	2	·	-0.8	-1
COc1cc(NC(=O)c2cc(-c3ccco3)on2)c(OC)cc1Cl	-3.1	-4.5	10	18	15	-10	8	14	-0.1	-30
Cc1nc2ccc(S(=O)(=O)NC(C(=O)Nc3nccs3)C(C)C)cc2s1 (configuration not stated)	7.6	-3.0	11	2	0	·	4	3	1.3	92*
COc1ccccc1N1CCN(C(=O)CCc2ccc(S(=O)(=O)NCC(C)C)cc2)CC1	0.3	·	13	·	4	2	4	·	0.3	4
O=C(COC(=O)Cc1ccc(Cl)cc1)NCc1cccs1	-0.7	-1.5	1	2	·	-1	·	-1	-1.1	·
COc1ccc(C(=O)CSc2nnc(NC(=O)C3CC(=O)N(c4ccccc4C)C3)s2)cc1 (configuration not stated)	-2.6	·	6	·	7	-4	14	·	0.0	22
CN(Cc1c(C(=O)N2CCc3ccccc3C2)nc2ccc(Cl)cn12)C(C1CC1)C1CC1	-1.9	-3.8	-4	-9	20	2	-8	-1	-1.2	-2
CN1CCN(c2nc3c(c(=O)[nH]c(=O)n3C)n2CC(N)=O)CC1	0.6	-5.1	3	7	-18	-1	9	4	1.1	1
COc1ccc(C2Nc3ccccc3C(=O)N2NS(=O)(=O)c2ccc(C)cc2)cc1 (configuration not stated)	-6.3	3.5	1	-9	4	-2	31	-7	-0.3	-10
Cc1cc(C)c2c(=O)[nH]cnc2n1	-0.2	-3.0	-5	3	-13	-3	-2	7	0.0	4
OC1CCN(C(=S)Nc2ccc(Nc3ccccc3)cc2)CC1	-0.3	6.0	-7	-21	19	-7	26	-22	-0.2	99*
C=C1c2ccccc2NC(=S)N1Cc1ccc2c(c1)OCO2	6.5	0.7	1	1	-37	·	10	4	-0.8	0
Cc1cc(OCC(=O)NCCCN2CCCC2=O)c2c(C)cc(=O)oc2c1	-1.6	-1.9	-3	2	3	-7	7	2	-0.2	-1

Screens (PubChem BioAssay)
